NPYLR7 agonist – mosquito NPYLR7 agonism. hit rate 0.15% among 270,000. HEK293T NPYLR7/Galpha15, GCaMP6s calcium fluorescence. activation, % at 10 µM; in the data active = activation above about 40%;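 also: 0% = vehicle and 100% = reference agonist at the receptor; some compounds past the cut are filed as inactive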
NPYLR7 agonist max-min – second read-out of NPYLR7 agonist, no call of its own (marks repeat the call); activation, %; measured here: Max-Min RFU normalised activation; some inactives read as strong as hits;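 span of the calcium signal over five minutes; 0% = vehicle and 100% = native peptide agonist; compound fluorescence can raise it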
An asterisk follows results filed as active; & = joins results of further samples. Only part of the results is shown; rates above refer to the full screens.

nr | Molecule | NPYLR7 agonist max-min | NPYLR7 agonist
1 | Cc1ccc(C(=O)Cn2c(NCCCO)nc3ccccc32)cc1 | 0 | 2
2 | O=C(Nc1ccc(N2CCNCC2)nc1)C1CCCCC1 | 9 | 20
3 | CCN(Cc1cccs1)C(=O)c1ccc(NC(C)=O)cc1 | -1 | -3
4 | Cn1cc(C(=O)Nc2ccc(S(N)(=O)=O)cc2)c2[nH]c(=O)n(Cc3ccccc3)c(=O)c21 | 2 | 5
5 | Cc1cc2n(nc1C)c1ccccc1[n+]2Cc1ccc(C(=O)O)cc1 | 11 | 6
6 | CC(Sc1n[nH]c(-c2cccs2)n1)C(=O)Nc1ccnn1C(C)C (stereo unspecified) | 19 | 16
7 | CCCCSc1nc2c(c(C(F)(F)F)c1C#N)CCC2 | -6 | -5
8 | CCOc1ccc(C(C)NC(=O)c2ccno2)cc1OCC (stereo unspecified) | 0 | -2
9 | CC(C)C1CC(C(=O)N2CCN(C)C3(CCN(C)CC3)C2)CCO1 (stereo unspecified) | 10 | 9
10 | C=CCNC(=O)C(C1CCCC1)N1CCN(C(=O)c2cccc(F)c2)CC1 (stereo unspecified) | 1 | -7
11 | CN(c1ccccc1)N1CC(C(=O)NCCC(c2ccccc2)c2ccccc2)CC1=O (stereo unspecified) | -7 | -2
12 | O=C(NCCn1ncccc1=O)c1cccc(C(F)(F)F)c1 | 3 | 5
13 | COc1cccc(-n2c(=O)[nH]c3c(C(N)=O)nc(-c4ccccc4O)nc32)c1 | 7 | 17
14 | CCOC(=O)CC1(N(C)C(=O)C2CCOC2)CCCCC1 (stereo unspecified) | -15 | -14
15 | COCCN(Cc1ccc(OS(=O)(=O)c2ccc(OC)cc2)cc1)C(=O)c1cccc(F)c1 | 23 | 30
16 | COc1ccc(-c2nnc3n2N=C2CCCCC2S3)cc1 (stereo unspecified) | 0 | 0
17 | CCc1ccc(S(=O)(=O)NCCCn2nc(-c3ccc(F)cc3)ccc2=O)s1 | 1 | 1
18 | CN(Cc1cnc(N)nc1)Cc1cn[nH]c1-c1ccccc1 | 14 | 27
19 | CCc1cccc2c(C(CC(=O)NC3CCN(Cc4ccccc4)CC3)c3cccc(OC)c3OC)c[nH]c12 (stereo unspecified) | 28 | 29
20 | Cc1ncc(C(=O)C(C#N)c2nc3cc(Cl)ccc3c(=O)[nH]2)s1 (stereo unspecified) | -6 | -6
21 | Cc1cccc(C2CC(c3ccccc3NS(C)(=O)=O)=NN2C(=O)C(C)C)c1 (stereo unspecified) | -4 | 1
22 | O=C(O)[C@@H]1CCCC[C@H]1C(=O)c1cccs1 | -2 | 0
23 | NC1=NC(=O)/C(=C\c2cccc(Cl)c2Cl)S1 | -15 | -7
24 | CNC(=O)C(=O)N1CCC(=O)N(C)c2ccccc2C(OC)C1 (stereo unspecified) | 3 | 0
25 | O=C(O)/C=C\c1csc2ccc(Br)cc12 | 3 | 3
26 | Cc1ccc(Cn2c(N3CCN(Cc4cc(C)ccc4C)CC3)nc3c2c(=O)[nH]c(=O)n3C)cc1 | 6 | 9
27 | COc1ccccc1C(=O)NCc1ccc(C)cc1 | -7 | -6
28 | CCOC(=O)N1CCC(NS(=O)(=O)CCCOc2ccc3c(c2)OCO3)CC1 | 10 | 7
29 | COc1cccc2cc(-c3nnc(Nc4cc([N+](=O)[O-])ccc4F)s3)c(=O)oc12 | -17 | -11
30 | Cn1nnc2cc(C(=O)N3CCC(c4[nH]ncc4-c4ccccc4)CC3)cnc21 | 0 | 2
31 | O=S(=O)(NCc1ccc(C2OCCO2)cc1)N1CCc2ccccc2C1 | -5 | -3
32 | c1cc(CN2CCC(c3ccncc3)CC2)n(-c2nccs2)c1 | 3 | 14
33 | Cn1nc(NC(=O)c2cccs2)c2c1NC(=O)CC2c1ccccc1 (stereo unspecified) | -13 | -15
34 | CCN1CCN(c2ccc(C(=O)Nc3nnc4ccccn34)cc2F)CC1 | 14 | 0
35 | CCCCNC(=O)CN(C)Cc1nnc(C)n1C | -1 | 3
36 | O=C1C(=Cc2ccco2)CCC1=C1SCCS1 | 2 | 3
37 | Cc1cc(F)ccc1Oc1cc(N2CCN(C(=O)Nc3ccc(Cl)cc3)C(C)C2)ncn1 (stereo unspecified) | 11 | 12
38 | CC(OC(=O)c1cccc(O)c1)C(=O)Nc1c(Cl)cccc1Cl (stereo unspecified) | 0 | 2
39 | O=C(CCN1Cc2ccccc2OC(c2ccccc2)C1)N1CCCCC1c1nccs1 (stereo unspecified) | 6 | 21
40 | COc1ccc(CCN(C)C(=O)Cc2csc(NC(=O)CN(CC(C)C)C(=O)c3ccc(Cl)cc3)n2)cc1OC | 2 | -6
41 | CCOC(=NCC1CCCO1)NC(=O)c1ccc(OC)cc1 (stereo unspecified) | 14 | 5
42 | CC(Oc1ccc(Br)cc1)C(=O)N=c1sccn1C (stereo unspecified) | 3 | 3
43 | COc1ccc2[nH]c(=O)c(=O)[nH]c2c1 | 2 | 5
44 | CC(C)NC(=O)C1(C)CCN1C(=O)c1cnc2ccccc2n1 (stereo unspecified) | 1 | 6
45 | CC(C)Cc1cn(C2CCN(C(=O)c3ccc4c(c3)CCO4)CC2)nn1 | 19 | 2
46 | CCNC(=O)NC(=O)C(C)Sc1nnc(Nc2ccc(C)cc2)s1 (stereo unspecified) | -7 | -4
47 | Cc1nnc(-c2cccc(NC(=O)C3CCCCN3C(=O)CCc3cccs3)c2)s1 (stereo unspecified) | 2 | 6
48 | CCOC(=O)c1ccc(NC(=O)N(CC(=O)Nc2cc(C(C)(C)C)nn2-c2ccc(C)cc2)Cc2ccccc2)cc1 | 6 | 1
49 | CCN1CCn2c(C)nc(C(=O)N3CCOC(c4ccc(F)cc4)C3)c2C1=O (stereo unspecified) | 1 | 3
50 | CC(C)N1CCc2nc(SCC(=O)Nc3ccc(F)c(Cl)c3)[nH]c(=O)c2C1 | 2 | 3

Structures listed so far with a Cl atom (6):
nr | Molecule | NPYLR7 agonist max-min | NPYLR7 agonist
20 | Cc1ncc(C(=O)C(C#N)c2nc3cc(Cl)ccc3c(=O)[nH]2)s1 (stereo unspecified) | -6 | -6
23 | NC1=NC(=O)/C(=C\c2cccc(Cl)c2Cl)S1 | -15 | -7
37 | Cc1cc(F)ccc1Oc1cc(N2CCN(C(=O)Nc3ccc(Cl)cc3)C(C)C2)ncn1 (stereo unspecified) | 11 | 12
38 | CC(OC(=O)c1cccc(O)c1)C(=O)Nc1c(Cl)cccc1Cl (stereo unspecified) | 0 | 2
40 | COc1ccc(CCN(C)C(=O)Cc2csc(NC(=O)CN(CC(C)C)C(=O)c3ccc(Cl)cc3)n2)cc1OC | 2 | -6
50 | CC(C)N1CCc2nc(SCC(=O)Nc3ccc(F)c(Cl)c3)[nH]c(=O)c2C1 | 2 | 3

Carrying on.
nr | Molecule | NPYLR7 agonist max-min | NPYLR7 agonist
51 | OC(CN1CCOC2CCCCC21)c1cccc(C(F)(F)F)c1 (stereo unspecified) | -4 | -2
52 | Cc1ccc(CNC(=O)c2cc(C)on2)c(N(C)C)c1 | -27 | -30
53 | O=C(O)CSc1nnc(C2CC2)n1-c1ccccc1C(F)(F)F | -3 | -2
54 | COc1ccccc1OCc1nc(CN(C(=O)NC(C)C)C(C)C)cs1 | -1 | 4
55 | CC(=O)c1cc(CN2CCOC(Cc3ccccc3)C2)cs1 (stereo unspecified) | 4 | 9
56 | CC1(O)/C=C\C=C(\CO)C2CC(C)(C)C2(O)CC1 (stereo unspecified) | 4 | 2
57 | COc1ccc(-n2nnc3c(=O)n(Cc4cccc(C(F)(F)F)c4)cnc32)cc1 | 11 | 6
58 | C(=NN=Cc1nc(-c2ccccc2)n2ccccc12)c1nc(-c2ccccc2)n2ccccc12 | 7 | 2
59 | CCCCCCCCCCCCCC(=O)N1CCSC1c1ccc(OC)cc1OC (stereo unspecified) | 23 | 25
60 | CN1N=C(C(=O)Nc2cc(Cl)ccc2C(=O)Nc2ccc(Cl)cn2)CCC1=O | 2 | 2

Arranged by number of heavy atoms (rising): three of the compounds above
nr | Molecule | NPYLR7 agonist max-min | NPYLR7 agonist
52 | Cc1ccc(CNC(=O)c2cc(C)on2)c(N(C)C)c1 | -27 | -30
53 | O=C(O)CSc1nnc(C2CC2)n1-c1ccccc1C(F)(F)F | -3 | -2
60 | CN1N=C(C(=O)Nc2cc(Cl)ccc2C(=O)Nc2ccc(Cl)cn2)CCC1=O | 2 | 2

Continued:
nr | Molecule | NPYLR7 agonist max-min | NPYLR7 agonist
61 | COCCN(Cc1cccs1)CC(O)COC(C)C (stereo unspecified) | 9 | 6
62 | CNC(=O)c1ccc(C2CCCN2C(=O)c2cc(CC(C)C)nn2C)s1 (stereo unspecified) | 11&-11 | 17&-2
63 | COc1ccc(NC(=O)c2cn(C)c3c(=O)n(-c4ccc(Cl)cc4)c(=O)[nH]c23)c(OC)c1 | 3 | 3
64 | COc1ccc(C(=O)N2CCN(C(C(=O)NCc3ccco3)C3CCCC3)CC2)cc1 (stereo unspecified) | 2 | -3
65 | NCCc1cc(N2CCC(N3CCC(O)CC3)CC2)ncn1 | 32 | 5
66 | CN(Cc1cn[nH]c1-c1ccc(F)cc1)Cc1ncccc1C(=O)O | 13 | 18
67 | CC(C)CN(CCC(=O)NCc1ccco1)c1nc(-c2ccco2)nc2cc(Cl)ccc12 | 21 | 18
68 | O=C(Cn1c(=O)oc2ccc(Cl)cc21)Nc1ccc(S(=O)(=O)Nc2nccs2)cc1 | 13 | 8
69 | Cc1cccc(S(=O)(=O)NCCc2cn(Cc3ccc(Cl)cc3)c3ccccc23)c1 | -14 | -8
70 | COc1ccc(C(=O)Nc2ccc(CC(=O)N3CCOCC3)cc2)c(OC)c1OC | -8 | -8

The final 2 entries of the part above come first, to join the parts:
nr | Molecule | NPYLR7 agonist max-min | NPYLR7 agonist
69 | Cc1cccc(S(=O)(=O)NCCc2cn(Cc3ccc(Cl)cc3)c3ccccc23)c1 | -14 | -8
70 | COc1ccc(C(=O)Nc2ccc(CC(=O)N3CCOCC3)cc2)c(OC)c1OC | -8 | -8
71 | Cc1nnc(NC(=O)CSc2c(C)cnc3c2c(=O)n(C)c(=O)n3C)s1 | 15 | 9
72 | CC(Sc1nncs1)C(=O)Nc1ccc(OC(F)F)cc1 (stereo unspecified) | 5 | 8
73 | CSCCOC(=O)C1=C(C)NC(=O)NC1c1cccc(Br)c1 (stereo unspecified) | -6 | -4
74 | CSc1nnc(C(C)C)c2cnn(-c3ccc(F)cc3)c12 | -16 | -9
75 | OCCC1CN(C2CCOCC2)CCN1Cc1ccccc1F (stereo unspecified) | -7&-5 | -7&2
76 | CCOC(=O)C1CCN(C(=O)c2coc(CN(Cc3ccc(F)cc3)Cc3cccc(C(F)(F)F)c3)n2)CC1 | 31 | 26
77 | Cc1cccc2c1NC1(CCN(C(=O)c3cccc([N+](=O)[O-])c3)CC1)NC2=O | 10 | 1
78 | O=[N+]([O-])c1nn(-c2ccccc2)n(O)c1=NCc1ccco1 | -16 | -12
79 | COC(=O)c1ccccc1N1C(=O)C2C3C=CC(O3)C2C1=O (stereo unspecified) | -14 | -6
80 | CC(c1ccccc1)N1CC(C(=O)N2CCN(Cc3ccc(C#N)cc3)CC2)CC1=O (stereo unspecified) | 3 | 1
81 | O=C(c1cc(-c2ccccc2)nn1-c1ccccc1)N1CCC(NS(=O)(=O)c2cccs2)CC1 | 14 | 16
82 | COc1ccc(OC)c(NC2=C(Cl)C(=O)N(c3ccccc3C)C2=O)c1 | 5 | 1
83 | O=C(O)C1=CCCNC1 | -17&-9 | -4&-5
84 | N#Cc1cccc(CSc2nnc(NC(=O)COc3ccccc3)s2)c1 | -1 | -1
85 | COc1ccc(-c2ccc(C(=O)NCc3cnn(C)c3)c(F)c2)cc1 | 5 | 8
86 | NS(=O)(=O)c1cccc(N2CC(C(=O)NCCc3ccc(F)cc3)CC2=O)c1 (stereo unspecified) | -16 | -16
87 | O=C1C=C(c2ccccc2)C(c2ccccc2)C1=O (stereo unspecified) | 7 | 14
88 | CCC(C(=O)NC1CC1)n1c(=O)n(-c2cccc(C(C)=O)c2)c(=O)c2ccccc21 (stereo unspecified) | -1 | -6
89 | O=C(Nc1ccc(F)cc1)c1cccc(CN2CCS(=O)(=O)CC2)c1 | -1 | 4
90 | Cn1cnnc1Sc1ccc(Cl)cc1NC(=O)C1CCCCC1 | 2 | 4
91 | Cc1ccc(NC(=O)N2CCSC23C(=O)N(C(C)C)c2ccccc23)cc1C (stereo unspecified) | 7 | 2
92 | O=C(CN1CCN(S(=O)(=O)N2CCCC2)CC1)NCc1ccccc1F | -4 | 4
93 | CCOC(=O)C1=C(C)NC(c2ccccc2)=C(C(=O)OCc2ccc([N+](=O)[O-])cc2)C1C#Cc1ccccc1 (stereo unspecified) | -15 | -9
94 | Cc1ccc(-c2nc(C(=O)N(C)Cc3ccc(C4CC4C)o3)cs2)o1 (stereo unspecified) | -3 | 0
95 | Cc1cccc(CN2CCN(C(=O)c3n[nH]c(=O)c4ccccc34)CC2)c1 | -9 | -8
96 | Cc1cnc(CNC(=O)c2cncn2-c2ccc(-c3ccc(F)c(F)c3)cc2)cn1 | 29 | 28
97 | CC(C)S(=O)(=O)c1ncc(CN(C)Cc2ccco2)n1Cc1ccccc1F | 10 | 13
98 | O=c1cc(CN2CCCSc3ccccc32)nc2sccn12 | 16 | 9
99 | CCOc1cc(C=C2C(=O)NC(=S)NC2=O)ccc1OCCOc1ccc(C(C)CC)cc1 (stereo unspecified) | -7 | -1
100 | COC(=O)c1cc(-c2ccc(OC)cc2)nc2c1c(C)nn2C1CCS(=O)(=O)C1 (stereo unspecified) | 7 | 12
101 | CCOC(=O)N1CCc2c(sc(NC(=O)C3CC3)c2-c2nc3ccccc3s2)C1 | -2 | 0
102 | O=S(=O)(c1ccccc1C(F)(F)F)N1CCN(c2nc3ccccc3nc2-c2ccccc2)CC1 | 23 | 29
103 | COCC(=O)N1CCC(C(NC(=O)c2cccc(C)c2)C(=O)N2CCCC2)CC1 (stereo unspecified) | 6 | -2
104 | COc1cccc(COC(CN2CCN(C(=O)c3cc(C)on3)CC2)c2ccc(Cl)cc2)c1 (stereo unspecified) | -8 | 2
105 | Cc1nc2n(c1CCNC(=O)c1cc(C3CC3)n(C(C)(C)C)n1)CCCC2 | -1 | 1
106 | CCCN(CC(=O)NC)Cc1cn2cc(Br)ccc2n1 | -1 | 1
107 | COc1ccc(/C=C/C(=O)NCCNc2cc(-n3cccn3)ncn2)cc1OC | -13 | -8
